Sfp PPTase inh = inhibitors of Bacillus subtilis Sfp phosphopantetheinyl transferase; Q9F4F7; Biochemical Sfp PPTase activity, qHTS; Potency, µM, inactives show max response, negative = inhibition, actives largely listed as inhibitors; 310,000 compounds, 3.5% hits; AID 1490; active = well fitted inhibition curve with a large enough effect; inconclusive = small, poorly fitted or top-dose-only effect, or another doubt; inactive = no such curve, though single readings can be large or run the other way;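 also: the enzyme is Sfp with the accession as filed and its product quenches rhodamine fluorescence; potency is read from the fitted curve at half-maximal effect; 0% = enzyme reaction without inhibitor and -100% = no enzyme wells; top concentration of the series not given in the record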
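Reaction rates are the 30-min fluorescence difference (ex 525, em 598 nm) in wells containing 15 nM Sfp, 5 uM rhodamine-CoA and 12.5 uM BHQ-2-YbbR at pH 7.6 with 10 mM MgCl2.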
ClpP mod = qHTS Assay for Activators of ClpP. ATP-dependent Clp protease proteolytic subunit (Bacillus subtilis (strain 168)), P80244. purified B. subtilis ClpP, FRET peptide cleavage, 20 min. Potency, µM (series often up to 57.5 µM), inactives show at the top dose activity change, negative = active. 340,000 compounds, 1.9% hits; active = well fitted falling curve with a large enough effect; inconclusive = small, poorly fitted or top-dose-only effect; inactive = no such curve, though single readings can be large or run the other way; also: potency is read from the fitted curve at half-maximal effect; the source files actives as falling curves though it sought activators and does not explain the sign; nearly all actives have a fitted effect of over 65% in size; many hits overshoot -100%
Target sequence (P80244 whole entry, looked up): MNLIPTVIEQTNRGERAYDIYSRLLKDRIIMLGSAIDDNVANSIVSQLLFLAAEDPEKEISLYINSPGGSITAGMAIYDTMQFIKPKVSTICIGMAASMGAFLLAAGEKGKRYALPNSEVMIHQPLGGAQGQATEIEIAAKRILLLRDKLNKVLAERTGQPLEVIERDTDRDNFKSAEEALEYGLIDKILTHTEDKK
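ClpP 10 microg/mL final, pH 8 Tris/KCl buffer with BSA, glycerol, Tween-20; compound pinned in; FRET-FV substrate; RT 20 min; Ex320/Em430; ΔFRET vs ADEP 5.8 microM, DMSO, no enzyme.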
TRPV1 PAM = human TRPV1 potentiation | Q8NER1 | TRPV1-expressing cells, Fluo-8 calcium influx, capsaicin EC20 potentiation; host cell line not named in the record; control for the full effect not named in the record | potentiation, % at 8.33 µM | 320,000 compounds, 0.02% hits; active means potentiation above 80%; inconclusive means 30% to 80%; inactive means below 30%; also: 0% is about no effect
Target sequence (Q8NER1 whole entry, looked up): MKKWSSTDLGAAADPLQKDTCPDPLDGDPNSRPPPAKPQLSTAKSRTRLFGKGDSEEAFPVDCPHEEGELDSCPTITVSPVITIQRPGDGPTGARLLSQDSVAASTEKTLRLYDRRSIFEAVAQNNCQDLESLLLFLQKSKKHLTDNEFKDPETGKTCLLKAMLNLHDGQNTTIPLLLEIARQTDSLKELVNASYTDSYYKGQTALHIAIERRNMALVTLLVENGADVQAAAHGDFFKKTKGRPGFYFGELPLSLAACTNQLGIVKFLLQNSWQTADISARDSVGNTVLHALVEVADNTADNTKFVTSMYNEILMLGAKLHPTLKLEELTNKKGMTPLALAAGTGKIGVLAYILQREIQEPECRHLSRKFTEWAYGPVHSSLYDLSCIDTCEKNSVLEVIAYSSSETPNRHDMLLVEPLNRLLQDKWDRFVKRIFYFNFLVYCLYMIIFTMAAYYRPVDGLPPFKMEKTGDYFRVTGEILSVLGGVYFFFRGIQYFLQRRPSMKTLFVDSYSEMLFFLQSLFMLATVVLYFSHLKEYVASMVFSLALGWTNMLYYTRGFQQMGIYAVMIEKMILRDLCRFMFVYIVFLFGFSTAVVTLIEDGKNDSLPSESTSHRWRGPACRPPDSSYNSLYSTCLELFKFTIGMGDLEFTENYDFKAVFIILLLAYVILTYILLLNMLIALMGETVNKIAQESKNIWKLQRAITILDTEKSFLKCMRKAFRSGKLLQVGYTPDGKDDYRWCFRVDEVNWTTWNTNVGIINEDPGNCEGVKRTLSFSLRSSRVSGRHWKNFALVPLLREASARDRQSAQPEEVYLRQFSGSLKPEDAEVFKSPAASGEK
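Cells expressing TRPV1 were dye-loaded with Fluo-8 and read kinetically: 10 s baseline, 3 min after compound (agonist portion), then 2 min after EC20 capsaicin (allosteric enhancer portion). Calcium-bound dye fluorescence at 480/520 nm.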
Menin MLL FP FL = displaces fluorescein MLL peptide from human menin; Fluorescence polarization, fluorescein-MLL peptide displacement from menin; FP activity change, % at 61.4 µM; 290,000 tested, under 10 active; inconclusive = falling polarisation curve, or a change in total fluorescence; inactive = total fluorescence flat and polarisation flat or rising; no compound was filed as active; the % refers to the polarisation; negative = inhibition;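 also: % of control where 0% means no effect; inhibitors lower the polarisation; unlabelled MLL peptide was the positive control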
* hit, by the source's call; u = inconclusive; x = no result given. Some of the compounds tested, so the mix of outcomes need not match the whole.

SMILES	Sfp PPTase inh	ClpP mod	TRPV1 PAM	Menin MLL FP FL
O=C(Nc1ccc(Oc2ccccc2)nc1)C1CCCCN1Cc1ccc(O)cc1 (stereo unspecified)	5.4%	x	-10.1	x
Cc1cc(C)cc(NC(=O)COc2ccc3c(C)c(Cc4ccccc4)c(=O)oc3c2)c1	-2.0%	x	u	x
COc1ccc(N2C(=O)[C@@H]3[C@H](C2=O)[C@H](C(=O)c2ccc(OC(C)=O)cc2)N2N=CC=C[C@@H]32)cc1	-23.4%	x	-3.2	x
NS(=O)(=O)c1ccc(NC(=S)N2CCN(S(=O)(=O)c3ccc(F)cc3)CC2)cc1	-19.9%	x	-6.5	x
C/C(=N/NC(=O)C1CCCC1)c1ccc(NC(=O)C(F)(F)F)cc1	6.8%	x	0.4	x
Cc1cccc(N2CCN(C(=O)c3ccc4c(c3)NC(=O)C(CSCc3cccc(F)c3)N4)CC2)c1C (stereo unspecified)	89.1µM*	x	-14.1	x
CC(C)c1ccccc1NC(=O)COc1ccc2c(=O)c(Oc3ccc4ccccc4c3)coc2c1	7.6%	x	-16.7	x
O=C(c1cc(COc2ccc3c(c2)CCCC3)on1)N1CCCC1	-2.6%	x	-2.6	x
O=S(=O)(Nc1cc(Sc2cccc3cccnc23)c(O)c2ccccc12)c1ccccc1	10µM*	x	19.7	x
CCCCOC(=O)NS(=O)(=O)c1sc(CC(C)C)cc1-c1ccc(Cn2c(CC)nc3c(C)cc(C)nc32)cc1	x	x	7.1	0.3
CC1=C(c2cccc(Cl)c2)S(=O)(=O)NC1=NCc1ccccc1C	x	2.8%	x	x
COc1ccc(CNC(=O)CN2N=C(c3ccccc3)CCC2=O)c(OC)c1	x	0.2%	x	x
CCN(c1ccc(C)cc1)S(=O)(=O)c1nnc(NC(=O)c2cccs2)s1	x	-6.6%	x	x
CC(=O)Nc1ccc(C)cc1-c1nc2ccccc2n(CC(=O)c2ccc(Cl)cc2)c1=O	x	0.6%	x	x
Cc1ccc(NC(=O)c2ccc(F)c(S(=O)(=O)NCCc3ccccc3)c2)cc1F	x	1.5%	x	x
CCc1cccc(NC(=O)C2Cc3ccccc3N2C(=O)c2ccccc2)c1 (stereo unspecified)	x	-6.1%	x	x
Cc1ccc(N2CCN(c3nc4ccccc4c4nnc(C)n34)CC2)c(C)c1	x	1.7%	x	x
Cc1ccc2oc(C(=O)Nc3nc(-c4ccc(F)cc4)ns3)c(C)c2c1	x	-6.9%	x	x
Cc1cccc(NC(=O)CSc2nnc3scc(-c4ccccc4)n23)c1	x	1.7%	x	x
CCOC(=O)c1c(C)[nH]c(C)c1S(=O)(=O)NCC(=O)N1CCN(c2cccc(C)c2)C(C)C1 (stereo unspecified)	x	-0.5%	x	x
Cc1ccccc1OCC(=O)N1CCC(c2nc3ccccc3s2)CC1	x	-1.1%	x	x
COc1ccc(C2=NN(CCC(=O)NCCc3ccccc3)C(=O)CC2)cc1	x	u	x	x
O=C(NCCc1ccccc1Cl)c1ccc(Cn2c(=O)c3cccn3c3cccnc32)cc1	x	4.7%	x	x
CCOc1ccc(C(=O)OCc2cc(=O)n3nc(C4CCCCC4)sc3n2)cc1	x	11.1%	x	x
Cc1c(Cl)cccc1NC(=O)c1cc(-c2cccs2)on1	x	-6.5%	x	x
SMILES	Sfp PPTase inh	ClpP mod	TRPV1 PAM	Menin MLL FP FL
CCS(=O)(=O)c1nc(S(=O)(=O)c2ccc(C)cc2)c(NCc2ccccc2Cl)s1	x	-22.7%	x	x
O=C(CCC(=O)N1CCSc2ccccc21)Nc1ccc(Cl)cc1	x	2.6%	x	x
COc1ccccc1N1CCN(S(=O)(=O)CCNC(=O)Cc2ccc(Cl)cc2)CC1	x	-3.7%	x	x
COC(=O)c1ccc(NC(=O)CC2C(=O)N(c3cccc(F)c3)C(=O)N2CC(C)C)cc1 (stereo unspecified)	x	-1.9%	x	x
CCOc1ccc(CC(=O)NCc2ccc3c(c2)CCN3C(=O)c2ccccc2)cc1OCC	x	0.8%	x	x
COc1ccc2c(CNCc3ccccc3OC)c(C(=O)O)n(Cc3ccc(F)cc3Cl)c2c1	x	-7.9%	x	x
Cc1cc(C)cc(OCC(=O)N(Cc2ccc(Cl)cc2)C2CCS(=O)(=O)C2)c1 (stereo unspecified)	x	-16.8%	x	x
COc1ccc(CNC(=O)CCc2c(C)nc3c4cccnc4nn3c2C)cc1	x	4.1%	x	x
COc1ccc(N2C(=O)CS(=O)(=O)C23C(=O)N(Cc2ccc(C)cc2)c2ccccc23)cc1Cl (stereo unspecified)	x	1.2%	x	x
O=C(Nc1ccc(N2CCC(c3ccccc3)C2)c(C(=O)O)c1)c1ccc(Cl)cc1 (stereo unspecified)	x	0.5%	x	x
CC(C)OC(=O)c1c(NC(=O)c2cc3nc(-c4ccccc4)cc(C(F)(F)F)n3n2)sc2c1CCCC2	x	-11.7%	x	x
Fc1ccc(Nc2nc3ccccc3c3nncn23)c(Cl)c1	x	8.6%	x	x
Cc1c(C(=O)N2CCC(C(=O)Nc3ccc(F)c(Cl)c3)CC2)sc2nc[nH]c(=O)c12	x	0.7%	x	x
Cc1ccc(CNC(=O)c2cc(-c3ccc(C)cc3)nc3n[nH]c(-c4cccc([N+](=O)[O-])c4)c23)cc1	x	0.9%	x	x
CCOc1ccc(C(=O)c2cn(CC(=O)Nc3ccc(F)cc3)c3cc4c(cc3c2=O)OCCO4)cc1	x	-7.9%	x	x
COc1cc(NC(=O)Cc2c(C(=O)O)c(C)cn2C)cc(OC)c1	x	-2.6%	x	x
COc1ccc(S(=O)(=O)Nc2cc(-c3cn4ccc(C)cc4n3)ccc2C)cc1OC	x	3.9%	x	x
Cc1ccc(NC(=O)C2(c3cccs3)CCOCC2)cc1Cl	x	0.4%	x	x
CCOCCCNC(=O)c1c(NC(=O)Cc2coc3c(C)c(C)ccc23)sc2c1CCC2	x	-3.3%	x	x
CC1CCN(S(=O)(=O)c2ccc3c(c2)CCN3)CC1	x	-23.0%	x	x
COc1cc(/C=C2\C=Cc3ccccc32)ccc1N(C)C	x	2.3%	x	x
Nc1ccc(/C=C/c2ccnc3ccccc23)cc1	x	-0.2%	x	x
Cc1c(Cl)cccc1NC(=O)c1oc2ccc(S(=O)(=O)N3CCC4(CC3)OCCO4)cc2c1C	x	-11.7%	x	x
Cc1c(NC(=O)c2ccc(Br)o2)cccc1-c1nc2ccccc2o1	x	-3.4%	x	x
CCOc1cc(CNC(=O)Cn2c(=O)c3cccn3c3ccc(F)cc32)cc(OCC)c1OCC	x	10.9%	x	x

One compound at a time (already shown). Values in the order: Sfp PPTase inh	ClpP mod	TRPV1 PAM	Menin MLL FP FL
Entry for CC1CCN(S(=O)(=O)c2ccc3c(c2)CCN3)CC1 = x	-23.0%	x	x
Entry for CC(=O)Nc1ccc(C)cc1-c1nc2ccccc2n(CC(=O)c2ccc(Cl)cc2)c1=O = x	0.6%	x	x

Following part.
SMILES	Sfp PPTase inh	ClpP mod	TRPV1 PAM	Menin MLL FP FL
CCOc1cc(C2CC(=O)Nc3nc(SCc4ccccc4)[nH]c(=O)c32)ccc1O (stereo unspecified)	x	-8.7%	x	x
O=C(Nc1ccc(Cl)cc1Cl)c1cc(S(=O)(=O)N2CCCCCC2)ccc1F	x	-26.4%	x	x
CN(C)c1ccc(-c2nnc3n(Cc4ccccc4)c(=O)c4ccccc4n23)cc1	x	-4.2%	x	x
COc1ccccc1NC(=O)N1CCN(c2nnc(C)c3c(C)n(-c4ccccc4)nc23)CC1	x	4.1%	x	x
COc1ccc(CCNC(=O)c2ccc(Cn3c(=O)[nH]c4cc(OC)c(OC)cc4c3=O)cc2)cc1OC	x	4.1%	x	x
O=C(NCc1cccs1)c1ccc(CSc2nc3cccnc3n2Cc2ccccc2)cc1	x	4.4%	x	x
Cc1ccc(CN2[C@H](C)[C@H](c3ccccc3)OCCS2(=O)=O)cc1	x	-1.9%	x	x
C=C(Br)COC(c1ccco1)[C@H](Cc1ccccc1)NC(=O)OC(C)(C)C (stereo partly specified)	x	-1.4%	x	x
CC(=O)N1c2ccccc2C(=O)C1N1CCN(c2ccc(Cl)cc2)CC1 (stereo unspecified)	x	-11.4%	x	x
COc1cc(NC(=O)C(NS(=O)(=O)c2ccc3c(c2)CCCC(=O)N3)C(C)C)cc(OC)c1 (stereo unspecified)	x	-2.1%	x	x
O=C(c1cccs1)N1CCCc2cc(NS(=O)(=O)c3ccc(F)cc3)ccc21	x	0.6%	x	x
COc1cc(NC(=O)CN2CCCN(S(=O)(=O)c3ccc(F)cc3)CC2)cc(OC)c1	x	0.0%	x	x
CCCN(C(=O)Cn1cnc2sc(C)c(S(=O)(=O)N3CCN(c4ncccn4)CC3)c2c1=O)c1cccc(C)c1	x	-16.1%	x	x
CCc1ccc(CN2CCc3nc(N4CCN(CC)CC4)ncc3C2)cc1	x	-1.8%	x	x
COc1ccc(-c2nc3sc(CCNC(=O)c4ccccc4C)c(C)n3n2)cc1	x	0.2%	x	x
O=S(=O)(c1ccccc1)n1nc(-c2ccc(Cl)cc2)nc1NCc1ccccc1	x	-8.9%	x	x
CCCCn1c(SCc2ccccc2C)nc2ccsc2c1=O	x	2.0%	x	x
Cc1ccc(CNC(=O)c2ccc(-c3nc(CS(=O)(=O)c4ccc(C)cc4)c(C)o3)cc2)cc1	x	u	x	x
Cc1ccc(N(CC(=O)N2CCN(c3cccc(C)c3C)CC2)S(=O)(=O)c2c(C)nn(C)c2C)cc1	x	-3.6%	x	x
COc1cc(NC(=O)N2CCc3c(sc4c3CCCC4)C2c2ccccc2)cc(OC)c1OC (stereo unspecified)	x	-2.0%	x	x
CCSc1nc(-c2ccccc2F)nc2c1Cc1c(CO)cnc(C)c1O2	x	-0.8%	x	x
CCOC(=O)c1sc2ccccc2c1S(=O)(=O)Nc1ccc(C(C)=O)cc1	x	-2.3%	x	x
Cc1cccc(CSc2nc(=O)c3c(n2C)NC(=O)CC3c2cc(F)cc(F)c2)c1 (stereo unspecified)	x	-3.1%	x	x
Cc1ccc2oc(-c3ccc(Cl)c(NC(=O)Cc4ccccc4)c3)nc2c1	x	-17.4%	x	x
Cc1cccc(-c2nc(CCNC(=O)COc3ccccc3)cs2)c1	x	-1.4%	x	x

Seven entries picked at random from those above:
SMILES	Sfp PPTase inh	ClpP mod	TRPV1 PAM	Menin MLL FP FL
O=S(=O)(c1ccccc1)n1nc(-c2ccc(Cl)cc2)nc1NCc1ccccc1	x	-8.9%	x	x
C=C(Br)COC(c1ccco1)[C@H](Cc1ccccc1)NC(=O)OC(C)(C)C (stereo partly specified)	x	-1.4%	x	x
O=C(NCc1cccs1)c1ccc(CSc2nc3cccnc3n2Cc2ccccc2)cc1	x	4.4%	x	x
COc1ccc(CCNC(=O)c2ccc(Cn3c(=O)[nH]c4cc(OC)c(OC)cc4c3=O)cc2)cc1OC	x	4.1%	x	x
CCSc1nc(-c2ccccc2F)nc2c1Cc1c(CO)cnc(C)c1O2	x	-0.8%	x	x
CC(=O)N1c2ccccc2C(=O)C1N1CCN(c2ccc(Cl)cc2)CC1 (stereo unspecified)	x	-11.4%	x	x
O=C(Nc1ccc(Cl)cc1Cl)c1cc(S(=O)(=O)N2CCCCCC2)ccc1F	x	-26.4%	x	x

Next section.
SMILES	Sfp PPTase inh	ClpP mod	TRPV1 PAM	Menin MLL FP FL
CC(C)N(Cc1ccccc1)C(=O)Cn1ncc2c([nH]c3ccccc32)c1=O	x	u	x	x
O=C(Nc1ccc(Br)cc1F)N1CCC(CN2CCc3ccccc3C2)CC1	x	-4.4%	x	x
CCS(=O)(=O)N1CC(=O)N(c2ccc(C)c(C)c2)C(C)(C(=O)NC2CCCCC2)C1 (stereo unspecified)	x	1.1%	x	x
O=C(/C=C\c1ccc2c(c1)OCO2)NC1CC(=O)N(c2ccc(F)cc2)C1 (stereo unspecified)	x	u	x	x
COc1ccc(S(=O)(=O)NCCc2csc3nc(-c4ccccc4)nn23)cc1OC	x	-0.3%	x	x
c1coc(CNc2ncnc3c2nc2n3CCCC2)c1	x	-2.3%	x	x
CCOc1ccc(NC(=O)Cc2coc3ccc(C)cc23)cc1	x	1.4%	x	x
Cc1oc2ccc(O)c(CN3CCCCC3)c2c1C(=O)Nc1cccc(C(F)(F)F)c1	x	-2.3%	x	x
C[C@@H]1[C@H](c2ccccc2)OCCS(=O)(=O)N1Cc1ccc(Cl)cc1	x	0.6%	x	x

Screening results (PubChem BioAssay)
